SARS PLpro yeast = inhibitors of SARS-CoV papain-like protease in yeast; S. cerevisiae expressing SARS-CoV PLpro, growth rescue; control for the full effect not named in the record; Potency, µM (top dose mostly 32.9 µM), for the others: top-dose activity, positive = growth rescue; 0.19% of 330,000 active; AID 485353; also: 0% is about no effect; nearly all actives have a fitted effect of over 55% in size; growth read by luminescence after 48 h
Lassa entry inh = Lassa virus entry inhibition | 1.2% of 300,000 active | Potency, µM (doses to about 37.9 µM), for the others: at the highest dose activity change, negative = inhibition, usual class: inhibitors | Lassa virus pseudotype entry inhibition, cell reporter; control for the full effect not named in the record; active means well fitted inhibition curve with a large enough effect; inconclusive means small, poorly fitted or top-dose-only effect, or effect the other way; inactive means flat fitted curve, though single readings scatter; tested in HEK293 cells; also: % is scaled to controls: 0 for no effect and ±100 for the full control effect; nearly all actives have a fitted effect of over 50% in size; luciferase read-out
NS1 function inh = influenza NS1 inhibition | S. cerevisiae slowed by influenza A NS1, growth recovery by OD600 | Potency, µM (highest dose often 46.1 µM), inactives show top-dose activity, positive = more growth | 0.4% of 270,000 active; also: actives are rising curves; nearly all actives have a fitted effect of over 50% in size
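Growth recovery, yeast-based: influenza A NS1 expressed in S. cerevisiae causes slow growth, and suppressors are detected by OD600. The parent strain without NS1 is used as positive control.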
Marburg entry inh = Marburg virus entry inhibition. Potency, µM (titrated, usually from 37.8 µM), without a hit: top-dose activity change, negative = inhibition, usual class: inhibitors. 1.8% of 300,000 active. Marburg virus pseudotyped entry inhibition, cell reporter; control for the full effect not named in the record; about a third of the inactives were read at about 46 µM. AID 540276; active = well fitted inhibition curve with a large enough effect; inconclusive = small, poorly fitted or top-dose-only effect, or effect the other way; inactive = flat fitted curve, though single readings scatter; tested in HEK293 cells; about a fifth of its hits are not listed in these tables; also: % is scaled to controls: 0 for no effect and ±100 for the full control effect; luciferase read-out
RE007 growth inh = less growth of the S. pombe RE007 Vpr strain. S. pombe RE007 Vpr strain, BacTiter-Glo ATP luminescence, 24 h; control for the full effect not named in the record. 0.21% of 360,000 active. Potency, µM (highest dose often 92.2 µM), for inactives: at the highest dose activity change, negative = less growth. AID 651644; active = well fitted falling curve with a large enough effect; inconclusive = small, poorly fitted or top-dose-only effect; inactive = no such curve, though single readings can be large or run the other way;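 also: % is scaled to controls: 0 for no effect and ±100 for the full control effect; nearly all actives have a fitted effect of over 50% in size; the assay follows cell death caused by Vpr and the record does not say whether a fall means rescue or toxicity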
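Fission yeast RE007 carrying one integrated HIV-1 vpr copy, seeded at OD 0.01 in PMG+AL medium with 23 nL pinned compound. Grown 24 h at 30 degrees; viability read by BacTiter-Glo luminescence after 5 min.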
Cruzain inh Det = inhibitors of Trypanosoma cruzi cruzain with detergent; purified cruzain, Z-FR-AMC fluorescence, 0.01% Triton; Potency, µM, for the others: max response, negative = inhibition, hits mostly inhibitors; P25779; 0.43% of 200,000 active; active = well fitted curve in the direction sought with a large enough effect; inconclusive = small, poorly fitted or top-dose-only effect, or another doubt; inactive = no such curve, though single readings can be large; an effect the other way counts as inactive or inconclusive;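 also: plate controls were neutral wells for no effect and buffer without enzyme for full effect; nearly all actives have a fitted effect of over 40% in size; top concentration of the series not given in the record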
Target sequence (P25779 123-467 limits assumed): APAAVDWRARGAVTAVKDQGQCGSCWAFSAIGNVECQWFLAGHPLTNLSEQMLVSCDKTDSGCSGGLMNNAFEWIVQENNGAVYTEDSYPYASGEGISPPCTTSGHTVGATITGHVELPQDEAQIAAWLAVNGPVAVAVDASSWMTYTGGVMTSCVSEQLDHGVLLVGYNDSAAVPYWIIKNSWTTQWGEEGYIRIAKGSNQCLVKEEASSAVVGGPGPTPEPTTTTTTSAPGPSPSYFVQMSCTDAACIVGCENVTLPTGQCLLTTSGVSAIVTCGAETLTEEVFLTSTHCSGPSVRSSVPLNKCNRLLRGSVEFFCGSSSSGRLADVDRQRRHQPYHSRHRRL
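Enzyme 1.5 nM, Z-FR-AMC 2 uM, NaOAc 100 mM pH 5.5, DTT 5 mM, Triton X-100 0.01%; 15 min RT compound preincubation; kinetic ex360/em450, 60 s delta.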
Cruzain noTriton = inhibitors of Trypanosoma cruzi cruzain without detergent; purified cruzain, Z-FR-AMC fluorescence, no detergent; P25779; AID 1476; Potency, µM, inactives show max response, negative = inhibition, actives largely listed as inhibitors; 2.3% of 200,000 active; active = well fitted curve in the direction sought with a large enough effect; inconclusive = small, poorly fitted or top-dose-only effect, or another doubt; inactive = no such curve, though single readings can be large; an effect the other way counts as inactive or inconclusive;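 also: plate controls were enzyme without inhibitor for no effect and buffer without enzyme for full effect; nearly all actives have a fitted effect of over 40% in size; top concentration of the series not given in the record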
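Detergent-free condition (0.00005% Triton X-100) in acetate buffer pH 5.5 with DTT. 1.5 nM enzyme and compound were pre-mixed 15 min, then 2 uM Z-FR-AMC substrate added; reaction progress from fluorescence change between first and third reads (60 s).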
2A StopGo = FMDV 2A StopGo reporter, luciferase signal. human cells with a luciferase reporter of 2A StopGo recoding; control for the full effect not named in the record. Potency, µM (highest dose often 57.9 µM), inactives show at the top dose signal change, negative = less light. 1.2% of 410,000 active; active = well fitted falling curve with a large enough effect; inconclusive = small, poorly fitted or top-dose-only effect; inactive = no such curve, though single readings can be large or run the other way; tested in HEK293T cells; also: % is scaled to controls: 0 for no effect and ±100 for the full control effect; nearly all actives have a fitted effect of over 45% in size; luciferase light after 4 h
Starred values were filed as active, the others as inactive; ? = inconclusive; · = not tested or not shown; & = joins results of further samples; [ ] = another dose, or the depositor's remark. Unless noted, calls follow the shape of the dose curve; as a rule, active means well fitted rising curve with a large enough effect; inconclusive means small, poorly fitted or top-dose-only effect; inactive means no such curve, though single readings can be large or run the other way. Potency is read from the fitted curve at half-maximal effect.

1) CCCCN(C)CCCNC(=O)CN1N=C(c2ccc(Cl)cc2)CCC1=O
2) CCC(=O)NC(=S)Nc1ccc(-c2nc3ccc(C)cc3s2)cc1
3) Cc1ccc2ccc3cccnc3c2n1
4) Brc1ccc(-c2noc(-c3ccccn3)n2)o1
5) O=c1cc(N2CCc3ccccc3C2)[nH]c(=O)n1C1CCCCC1
6) O=C(NC1CCCCC1)C1CCN(S(=O)(=O)N2CCCCCC2)CC1
7) CCC(=O)NC(Nc1nc2ccc(C)cc2s1)(C(=O)OC)C(F)(F)F (stereo not drawn)
8) NNC(=S)Nc1ccc(C(F)(F)F)cc1Cl
screen / no.	1	2	3	4	5	6	7	8
Cruzain inh Det	·	-0.8%	·	·	2.8%	-6.3%	1.7%	·
NS1 function inh	2%	5%	·	-33%	-6%	-1%	-8%	0%
Cruzain noTriton	·	?	·	·	-8%	-12%	-1%	·
Marburg entry inh	4%	?	?	?	?	19%	0%	·
2A StopGo	-15%	42%[activator]	10%	-13%	?	-24%	15%	-13%
RE007 growth inh	-3%	-3%	?	?	-7%	20%	·	-10%
Lassa entry inh	?	?	?	?	-16%	1%	·	·
SARS PLpro yeast	-1%	7%	·	-3%	-14%	3%	13%	1%

Profiles, looked up by structure. Order of screens: Cruzain inh Det | NS1 function inh | Cruzain noTriton | Marburg entry inh | 2A StopGo | RE007 growth inh | Lassa entry inh | SARS PLpro yeast
O=C(NC1CCCCC1)C1CCN(S(=O)(=O)N2CCCCCC2)CC1 across the screens: -6.3% | -1% | -12% | 19% | -24% | 20% | 1% | 3%
Brc1ccc(-c2noc(-c3ccccn3)n2)o1 across the screens: · | -33% | · | ? | -13% | ? | ? | -3%
NNC(=S)Nc1ccc(C(F)(F)F)cc1Cl across the screens: · | 0% | · | · | -13% | -10% | · | 1%
Cc1ccc2ccc3cccnc3c2n1 across the screens: · | · | · | ? | 10% | ? | ? | ·

Later entries.
9) Cn1c(=O)c2[nH]c(NN=Cc3cccc(Br)c3)nc2n(C)c1=O
10) c1ccc(Nc2ccc3c4c(cccc24)CC3)cc1
11) Cc1cc(Cc2cc(C)c(N)cc2C)c(C)cc1N
12) CC(=O)OCC1OC(n2ccc3ccccc32)C(OC(C)=O)C(OC(C)=O)C1OC(C)=O (stereo not drawn)
13) Cc1cc(C)n(C(=O)CCC2COc3ccccc3O2)n1 (stereo not drawn)
14) O=C(N/N=C/c1cccc(Oc2ccccc2)c1)c1ccc(O)cc1O
15) CC(=O)c1ccc(OC(C)c2nc3ccccc3s2)cc1 (stereo not drawn)
16) CCOc1cc(N2CCOCC2)c(OCC)cc1NC(=O)c1ccc(OC)cc1
screen / no.	9	10	11	12	13	14	15	16
Cruzain inh Det	·	-5.7%	·	-0.4%	0.1%	·	·	·
NS1 function inh	·	?	3%	-5%	-7%	-17%	-47%	·
Cruzain noTriton	·	-6%	·	?	-24%	·	·	·
Marburg entry inh	?	-25%	27%[46.1 µM]	0%	?	2%[46.1 µM]	7%[46.1 µM]	?
2A StopGo	-23%	-7%	-23%	-21%	-4%	14%	4%	-22%
RE007 growth inh	14%	-19%	5%	-1%	-7%	-2%	17%	-19%
Lassa entry inh	?	1%	29%[46.1 µM]	-6%	10%	9%[46.1 µM]	-22%	-23%
SARS PLpro yeast	·	10%	0%	0%	-17%	-2%	-4%	2%

17) Cc1cc(C(=O)Nc2cnn(Cc3ccc(Cl)cc3Cl)c2)no1
18) COc1ccc(C2CC(c3ccccc3)=NN2C(=O)COC(=O)c2cccc(S(=O)(=O)N(C)C)c2)cc1 (stereo not drawn)
19) COc1cc(/C=N/NC(=O)C2COc3ccccc3O2)ccc1O (stereo not drawn)
20) O=C(CC1S/C(=N/N=C/c2cccnc2)NC1=O)Nc1ccccc1 (stereo not drawn)
21) CC(=O)N[C@@H](Cc1c[nH]c2ccccc12)C(=O)OCC(=O)Nc1ccc(S(=O)(=O)N(C)C)cc1
22) O=C(CSc1ccc(-c2ccc(F)cc2)nn1)N1CCN(c2ccccc2)CC1
23) Cc1ccc(C)c(NC2=NCCCS2)c1
24) C[C@H](NC(=O)[C@@H]1Cc2ccccc2CN1C(=O)OC(C)(C)C)C(=O)NC1CCCCC1
screen / no.	17	18	19	20	21	22	23	24
Cruzain inh Det	-3.0%	3.6%	·	·	·	0.7%	11%	·
NS1 function inh	-11%	3%	0%	·	·	12%	-27%	-4%
Cruzain noTriton	-4%	?	·	·	·	3%	2%	·
Marburg entry inh	13%	?	?	15%[46.1 µM]	5%[46.1 µM]	17%	0%	-28%[46.1 µM]
2A StopGo	-5%	11%	-18%	11%	?	-23%	-22%	9%
RE007 growth inh	7%	·	-7%	15%	-5%	-4%	-3%	-7%
Lassa entry inh	?	?	?	·	-12%	2%	2%	-12%[46.1 µM]
SARS PLpro yeast	-13%	23%	0%	1%	0%	15%	3%	3%

25) CCOC(=O)N1CCN(C(=O)c2ccc3c(SCC(=O)O)c4c(nc3c2)CCC4)CC1
26) Cc1ccc(S(=O)(=O)N2CCCC2C(=O)Nc2nc3ccccc3s2)cc1 (stereo not drawn)
27) CCN(CC)C(=O)c1sc(NC(=O)c2ccncc2)c(C(=O)OC)c1C
28) COC(=O)c1ccc(OCC(=O)c2ccc(O)cc2O)cc1
29) COc1c2ccccc2nc2ccccc12
30) CCS(=O)(=O)c1nc(S(=O)(=O)c2ccc(C)cc2)c(N2CC(C)OC(C)C2)s1 (stereo not drawn)
31) O=C(NC1CCCCC1)C(=O)c1c(-c2ccccc2)[nH]c2ccccc12
32) CCN(CC)CCCNC(=O)c1cn(CC)c2ccc(S(=O)(=O)N(C)C3CCCCC3)cc2c1=O
screen / no.	25	26	27	28	29	30	31	32
Cruzain inh Det	-4.9%	-2.2%	-1.8%	-7.8%	·	·	-5.6%	·
NS1 function inh	6%	-13%	11%	3%	-110%	-24%	27%	-8%
Cruzain noTriton	11%	-6%	-10%	0%	·	·	-3%	·
Marburg entry inh	·	-1%&-1%	?	28%	-10%[46.1 µM]	·	-3%	·
2A StopGo	-17%	-27%	9%	-7%	-29%	-10%	-19%	0%
RE007 growth inh	-3%	-3%	-1%	-5%	-22%	-6%	6%	-5%
Lassa entry inh	·	0%	?	?	2%[46.1 µM]	·	-18%	·
SARS PLpro yeast	4%	-14%	6%	4%	-14%	-3%	19%	-4%

33) CC(C)C(NC(=O)c1ccccc1NC(=O)c1ccco1)C(=O)O (stereo not drawn)
34) CN(C1CCCCC1)S(=O)(=O)c1ccc2c(c1)CCC(=O)N2
35) CCc1ccccc1NC(=O)c1ccc(=O)n(Cc2ccc(F)cc2)c1
36) O=S(=O)(c1ccccc1)n1ccc(-c2cnc(-c3ccccc3)s2)n1
37) O=C1C2CC=CCC2C(=O)N1c1n[nH]c(CCc2ccccc2)n1 (stereo not drawn)
38) CC(=O)NCCc1nc2ccccc2n1CCOc1cccc(C)c1
39) COc1cccc(NC(=O)CCP(C)(=O)O)c1
40) O=C(O)c1nc2ccccc2nc1C(=O)O
screen / no.	33	34	35	36	37	38	39	40
Cruzain inh Det	-0.6%	·	-0.7%	3.4%	2.2%	·	5.2%	0.3%
NS1 function inh	?	·	·	9%	0%	-2%	2%	-4%
Cruzain noTriton	5%	·	8%	-1%	-8%	·	1%	-5%
Marburg entry inh	26%	11%	·	1%	-10%	·	?	9%
2A StopGo	·	-9%	-29%	29%	0%	-10%	-10%	24%
RE007 growth inh	-10%	18%	·	5%	-6%	-6%	-5%	-14%
Lassa entry inh	-5%	-6%	10%[46.1 µM]	2%	9%	·	?	11%
SARS PLpro yeast	5%	-2%	·	3%	11%	2%	2%	1%

41) CCN(Cc1ccccc1)C(=O)Cn1cnc2c1c(=O)n(C)c(=O)n2C
42) Cc1cc(=O)n2nc(N3CCC(C(=O)NCCc4ccccc4)CC3)sc2n1
43) COc1ccccc1-c1nnc(C2CCN(S(=O)(=O)c3ccc(CC(C)C)cc3)CC2)o1
44) CCCN1C(=O)C2(c3ccccc31)c1c(oc3ccc(C)cc3c1=O)C(=O)N2CCOC (stereo not drawn)
45) O=C(Nc1ccc(N2CCN(C(=O)c3ccco3)CC2)c(Cl)c1)c1cccnc1
46) CCOc1ccc(C(C)NC(=O)c2ccccc2OCc2c(C)noc2C)cc1OCC (stereo not drawn)
47) CSc1ncccc1C(=O)OCc1ccc([N+](=O)[O-])cc1
48) Cc1ccc(/C=C2\SC(=S)N(CCC(=O)NNC(=O)c3ccncc3)C2=O)cc1
screen / no.	41	42	43	44	45	46	47	48
Cruzain inh Det	3.8%	-5.4%	-6.5%	-1.8%	·	·	·	·
NS1 function inh	4%	2%	·	·	-4%	1%	·	4%
Cruzain noTriton	-5%	-10%	?	9%	·	·	·	·
Marburg entry inh	?	13%	-7%[46.1 µM]	14%[46.1 µM]	9%[46.1 µM]	?	2%[46.1 µM]	4%
2A StopGo	50%[activator]	9%	-3%	-18%	-23%	-22%	-7%	-2%
RE007 growth inh	-3%	1%	·	·	-14%	0%	7%	-5%
Lassa entry inh	-5%	0%	-29%[46.1 µM]	-15%[46.1 µM]	-1%[46.1 µM]	?	8%[46.1 µM]	13%
SARS PLpro yeast	2%	4%	·	·	0%	-2%	-3%	-1%

Source: PubChem BioAssay

Compounds as they come. Share with any hit: about 4.6%.
